AID504770: growth inhibitors of E. coli YBA685 in a screen for V. cholerae RctB (chromosome II replication) inhibitors; E. coli YBA685 rctB-dependent plasmid, OD600 growth, 3 h; hits give low values; z-score (no concentration beside the values); 130,000 tested, 0.27% active; AID 504770;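 active means z-score under -2 on both plates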;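 further: wells of about 30 µL received 100 nL stock; score is relative to mean and SD of the test wells; the first replicate is given; strong numbers were not always called active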
Ba CapD inh: blocks the Bacillus anthracis CapD enzyme. purified CapD enzyme, fluorescence intensity read-out; hits give low values; some hits fall short of the stated cut. z-score (concentration not given with the values). 140,000 tested, 0.23% active;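 active means z-score under -4 in either of two replicates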;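 further: stock transfer was 100 nL into about 40 µL; score is relative to mean and spread of the plate; one replicate is shown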
* hit, by the source's call; i = inactive; . = no result given; & = joins results of further samples. Compounds as they come; 0.37% or so of the library scored in one or more.

SMILES	AID504770	Ba CapD inh
O=C(Cc1n[nH]c(=O)c2ccccc12)N1CCc2ccccc21	0	.
COc1ccc(NC(=O)COc2cccc3c2CCNC3=O)c(OC)c1	-0.3	.
CCOc1ccc(CCNC(=O)c2ccc3c(c2)nnn3CC)cc1OCC	-0.7	.
Fc1ccc(-c2ncc3ccccn23)cc1	-0.85	i
O=C(CN1C(=O)c2ccccc2C1=O)OC1CSCC1NC(=O)c1ccccc1 (centres undefined)	0.4	0.24
CNS(=O)(=O)c1ccc2[nH]c(=O)[nH]c2c1	0.9	2.2
O=C(CC1c2ccccc2CCN1S(=O)(=O)c1ccc(F)cc1)OC1CCOC1=O (centres undefined)	-0.1	.
Cc1[nH]c2ccccc2c1SCC(=O)NN	0.6	0.43
CCS(=O)(=O)N1CCc2cc(C(=O)CSc3nnc(NC4CC4)s3)ccc21	-0.5	.
CC(C(=O)NCc1ccco1)n1c(-c2cscn2)nc2ccccc21 (centres undefined)	-1.2	.
CCCc1nn(C(=O)c2ccc(Cl)cc2)cc1C(=O)OCC	0.5	0.27
COC(=O)c1ccc(NC(=O)C23CC4CCC2(C)C4(C)CO3)cc1 (centres undefined)	.	0.065
CC1=Nc2cc(C(=O)NCCCN3CCOCC3)ccc2Sc2c(C)ccc(C)c21	0.05	0.92
Cc1ccc(/C=C(/C#N)C(=O)Nc2ncc(Cc3cc(Cl)ccc3Cl)s2)o1	0.85	.
O=C(COc1cc(C(F)(F)F)nc2ccccc12)Nc1ccc2c(c1)OCO2	-0.1	-0.83
CCOC(=O)c1c(C)n(C)c2c1cc(OC(=O)Cc1ccccc1)c1ccccc12	.	0.21
O=C(NC1CC1)C1CCN(c2ncnc3c2sc2cccc(F)c23)CC1	0.95	6.3
CCCc1ccc(C(=O)CCC(=O)O)cc1	.	0.11
Cc1nn(-c2ccccc2)c(C)c1C(=O)NNC(=O)c1ccc(Cl)cc1	.	0.57
O=C(Nc1ccccc1)C1CCN(C(=O)c2ccco2)CC1	-0.35	.
CCOC(=O)c1sc(NC(=O)Cn2nc(C)c([N+](=O)[O-])c2C)c(C(=O)OCC)c1C	.	-0.21
COC(=O)c1cc(S(=O)(=O)N2CCCN(Cc3ccc(F)cc3)C2)c[nH]1	0.6	-0.035
COc1ccc2c3c1CCCN3CCC2	0.9	3.1
CCSc1sc(CC)cc1C(N)=O	0.8	-0.04
O=C(NN=C1CCCC1)C1COc2ccccc2O1 (centres undefined)	-0.75	.
Cc1[nH]n(C)c(=O)c1C(=O)Nc1ccccc1	0.25	-0.015
CC1CC(=O)Nc2ccccc2N1C(=O)Cn1nnc(-c2cccs2)n1 (centres undefined)	1.1	.
O=C(O)CCNCc1c(Cl)cccc1Cl	-0.25	0.93
CC(=O)Nc1ccc(S(=O)(=O)N2CCCC(CO)C2)cc1 (centres undefined)	-0.35	0.03
c1ccc(CCCN2CCN(C3CCCC3)CC2)cc1	0.7	.
Cc1ccc(C(=O)O)cc1-n1cccc1	-0.7	-0.64
COC(=O)C1=NN(C(=O)c2ccccc2)C(O)(c2ccc(Cl)cc2)C1 (centres undefined)	.	-0.29
Cc1ccc(S(=O)(=O)N2CCN(C(=O)N(C)c3ccccc3)CC2)cc1	-0.55	.
O=C(CCN1C(=O)/C(=C/c2ccc3c(c2)OCO3)SC1=S)Nc1ccc(O)c(C(=O)O)c1	.	-0.64
CSCCC1NC(=O)N(Cc2c(Cl)cccc2Cl)C1=O (centres undefined)	0.2	.
CCc1nc2ccccc2c(C(=O)OCc2ccc(C#N)cc2)c1C	0.55	0.59
CCC(=O)O[C@H]1CC[C@H]2[C@@H]3CCC4=CC(=O)CC[C@]4(C)[C@H]3CC[C@]12C	.	0.99
Cc1nn(CC(=O)NCCCN2CCN(Cc3ccccc3)CC2)c(=O)c2cc(-c3ccccc3)nn12	-0.35	-0.34
CCCCN(CCCC)S(=O)(=O)c1ccc2c(c1)C(=O)c1cc(S(=O)(=O)N(CCCC)CCCC)ccc1-2	.	0.57
N#CCCN1c2ccccc2Sc2ccccc21	0	0.92
CCCn1c(SCc2ccc(C(C)(C)C)cc2)n[nH]c1=O	-1	.
CC(=O)N1CCC(C(=O)Nc2ccc(N3CCOCC3)cc2)CC1	0.45	-0.86
O=C(O)C1Cc2ccccc2N1 (centres undefined)	-0.45	0.23
N#CCSc1ncccc1-c1nc2ccccc2[nH]1	0.05	.
O=C(CN1C(=O)CC(c2ccccc2)Sc2ccccc21)N1CCCCC1 (centres undefined)	-0.05	-0.82
CC(C)CN(C(=O)CSc1ccc2c(c1)OCCO2)c1c(N)n(CC(C)C)c(=O)[nH]c1=O	-1.3	.
CC1(C)CC(=O)c2cc(OCC(=O)NC3CC3)ccc2O1	0.1	64
Cn1cccc1Cc1nnc(SCC(=O)Nc2ccc3c(c2)OCCO3)n1CCc1ccccc1	2.4	-1.3
CCc1c(C)c(C#N)c2nc3ccccc3n2c1Nc1ccc(N(CC)CC)cc1	.	-0.66
Cn1c(Cc2nnc(NC3CCCCC3)s2)nc2ccccc21	-0.05	.
O=C(O)C1CC1C(=O)N1CCN(C/C=C/c2ccccc2)CC1 (centres undefined)	.	0.62
CCn1c(C)c(CCC(=O)Nc2ccc(C(=O)OC)cc2)c(=O)n2nc(-c3ccccc3OC)cc12	0	6.5
Cc1cc2cc(CNC(=O)C(C)(C)Oc3ccc(Cl)cc3)ccc2n1C	-0.3	0.65
Fc1cccc(Cl)c1CSCc1c(F)cccc1Cl	.	0.22
CC(NC(N)=O)C(=O)OCc1ccc(C(C)(C)C)cc1 (centres undefined)	-0.15	.
COc1ccc(C2=NN(CN3C(=O)C(=O)c4ccccc43)C(c3ccccc3Cl)C2)cc1 (centres undefined)	.	-0.7
CCC(C)(C)NC(=O)c1ccc2c(c1)OCO2	-0.35	0.77
C/C(=N\NC1=NCCN1Cc1ccccc1)c1ccc(C)cc1	.	0.71
FC(F)(F)Oc1ccc(-c2nnc(-c3ccncc3)o2)cc1	-0.55	-0.24
CN(C(=O)Cn1nc(C(F)(F)F)c2c1CCC2)C1CCCCC1	-0.25	.

A draw from above in order of SMILES length, falling.
SMILES	AID504770	Ba CapD inh
CC1(C)CC(=O)c2cc(OCC(=O)NC3CC3)ccc2O1	0.1	64
CSCCC1NC(=O)N(Cc2c(Cl)cccc2Cl)C1=O (centres undefined)	0.2	.
Fc1cccc(Cl)c1CSCc1c(F)cccc1Cl	.	0.22

Carrying on:
SMILES	AID504770	Ba CapD inh
Cc1cccc(C2CC(=O)Nc3c2ccc2ccccc32)c1 (centres undefined)	.	0.85
CN(C(=O)c1ccc(Cl)cc1Cl)C1CCS(=O)(=O)C1 (centres undefined)	0.4	0.83
O=C(c1ccco1)N(C1CC1)C1CCN(Cc2ccccc2)CC1	.	-0.62
Cc1cc(C)n(-c2ccc3c(C(F)(F)F)cc(C(F)(F)F)nc3n2)n1	.	2.2
CCOC(=O)N1CCC(NC(=O)c2cc3n(n2)C(C(F)(F)F)CC(c2ccc4c(c2)OCO4)N3)CC1 (centres undefined)	.	-0.13
CCOc1ccc(C(=O)N2CCN(c3ccccc3)CC2)cc1	-0.7	.
O=C(NCCSCc1ccccc1)c1ccc(N2CC3CC(C2)c2cccc(=O)n2C3)c(NC(=O)c2ccncc2)c1 (centres undefined)	.	0.3
NCc1ccccc1CC(=O)N[C@@H]1C(=O)N2C(C(=O)O)=C(CSc3nnnn3CC(=O)O)CS[C@H]12	.	-0.51
C=CC(=O)N1c2cc(C)ccc2-c2c(ssc2=S)C1(C)C	.	-0.24
O=c1c2ccccc2c(C=NCc2nc3ccccc3[nH]2)c(O)n1-c1ccccn1	-0.3	.
Cc1ccc(NC(=O)C2CCCN2C(=O)Oc2ccccc2)cc1C (centres undefined)	.	-0.14
O=C(O)Cn1cc2c(n1)CCCC2	-0.2	-0.18
CCN(CC)C(=O)/C(=C/c1cccc([N+](=O)[O-])c1)NC(=O)c1ccco1	.	-0.6
CN(C)S(=O)(=O)c1ccc(C(=O)OCCN=C2NS(=O)(=O)c3ccccc32)cc1	-0.15	-0.21
CC1(C)CC(CCNC(=O)c2ccc(-n3cnnn3)cc2)CC(C)(C)N1	-0.6	-0.9
CCOc1cc(C2Nc3ccccc3NC3=C2C(=O)CC(c2ccc(OC)cc2)C3)ccc1OC(=O)C1CC1 (centres undefined)	.	-0.96
Cc1nnc(SCC(=O)c2ccc3c(c2)OCCO3)o1	-0.1	-0.46
COC(=O)c1ccc(NC(=O)COc2ccc3ccccc3c2Br)cc1	0.35	0.47
COc1cc(NC(=S)N(N)CCO)c(OC)cc1Cl	0.2	0.68
O=C(Cn1c2ccccc2c(=O)c2ccccc21)Nc1ccc(OC(F)(F)F)cc1	.	13
Cc1cccc2nc3c(nc12)CCCC3	-0.8	3.3
N/C(=N/O)C(c1ccccc1)c1ccccc1	0.95	-0.075
COc1ccc(NC(=O)C2CCCN(S(=O)(=O)c3ccc4c(c3)oc(=O)n4C)C2)cc1Cl (centres undefined)	-0.55	-2.4
CCN(CC(=O)Nc1ccc2c(c1)OCCO2)C(=O)c1cnc(SC)n1-c1ccccc1	-0.15	.
N#CC1c2ccc(Br)cc2C=CC1c1ccccc1 (centres undefined)	0.7	2.1
Cc1ccsc1/C=c1\sc2nc(-c3ccccc3)c(-c3ccccc3)n2c1=O	.	-0.21
Cc1nc2c(C(=O)NCCc3ccccc3)c[nH]n2c(=O)c1Cl	1.4	17
CCC(C)(CC(=O)O)Cc1nc2ccccc2s1 (centres undefined)	-0.25	.
CC(C)(C)CC(C)(C)NC(=O)c1cccnc1Oc1ccccc1	-0.5	-0.14
O=C(NCc1ccco1)C1CCC(N2C(=O)c3ccccc3C2=O)CC1 (centres undefined)	-0.2	.
O=C1CC(=O)N(c2ccccc2)N1c1ccccc1	0.25	14
CC1CN(CC(=O)NC2CCCCC2)CC(C)O1 (centres undefined)	-2.9	.
O=S(=O)(c1cccc(C(F)(F)F)c1)N1CCN(Cc2cccc(Cl)n2)CC1	.	-0.43
OC(CSc1nccc(-c2ccc3c(c2)OCCO3)n1)C(F)(F)F (centres undefined)	0.55	84
Cc1ccc2c(c1)NC(=O)C(CCCl)O2 (centres undefined)	-0.35	-0.54
COc1ccc(CCn2c(C)cc(C3=NNC(=NC4CC4)SC3)c2C)cc1	0.05	.
CSc1sc(-c2nc(C)cs2)c(C)c1-c1ccnc(=S)[nH]1	0.05	0.53
COCCOC(=O)c1c(C)oc2ccc(NS(=O)(=O)c3cc(Cl)ccc3Cl)cc12	.	-0.32
Cc1ccc2c(nc3s/c(=C\c4cc(C(C)(C)C)c(O)c(C(C)(C)C)c4)c(=O)n32)c1C	.	0.02
Clc1ccc(-c2csc(-c3cc4cc(Br)ccc4oc3=Nc3ccccc3)n2)cc1	.	-0.42
Cc1cccc(COc2cccnc2N)c1	.	0.51
CCN(/C(N)=N/c1nc(C)cc(C)n1)c1ccccc1	-0.2	0.04
NS(=O)(=O)c1ccc(CNC(=O)COC(=O)C2CC3C=CC2C3)cc1 (centres undefined)	0.3	.
CC(=O)N1CCc2ccccc21	-0.5	-0.57&-0.11
CCC(N=c1cc(-c2ccc(OC)cc2)oc2ccc(C)cc12)C(=O)O (centres undefined)	-0.4	-0.16
Cn1c(=O)c(=O)n(C)c2cc(S(=O)(=O)NCCCN3CCN(Cc4ccccc4)CC3)ccc21	-0.15	3.3
O=C(NCCCN1CCCCCC1)c1ccc(Cn2c(=S)[nH]c3ccc(Br)cc3c2=O)cc1	.	-0.18
CCC(Cc1ccccc1)NC(=O)C1CC1 (centres undefined)	-0.7	-0.14
COc1cc(NC(C)=O)cc(OC)c1	.	-0.22
Cc1ccc(-n2c(C)cc(/C=N/O)c2C)cc1	0.75	0.56
CCCc1[nH]nc2c1C1(CCN(C(C)=O)CC1)C(C#N)=C(N)O2	0	.
COCc1cnc(C)nc1N	0.5	0.28
Oc1ccc2ccccc2c1C(N=Cc1ccc(C(F)(F)F)cc1)c1ccc(C(F)(F)F)cc1 (centres undefined)	.	0.5
O=C(NNC(=O)c1ccc(-c2ccccc2)cc1)OCc1ccc2c(c1)OCO2	.	-0.075
COc1cc(SC)ccc1C(=O)N1CCc2ccccc2C1	0.9	0.23
Nc1noc2c1C(c1ccc(F)c(Oc3ccccc3)c1)C1=C2CCCC1=O (centres undefined)	0.45	0.38
COc1cccc(CC(C)C(N)=O)c1 (centres undefined)	0.95	0.94
CN(C)S(=O)(=O)c1ccc(S(=O)(=O)N2CC=C(c3ccc(F)cc3)CC2)cc1	-1	.
CCOC(=O)c1sc(SCC(=O)c2ccc(Cl)cc2)nc1C	1.8	-0.39
O=C(CN1CCN(CC(=O)c2ccccc2)CC1)c1ccccc1	-0.8	0.18

Nothing new here: 15 of the compounds above.
SMILES	AID504770	Ba CapD inh
Cn1c(=O)c(=O)n(C)c2cc(S(=O)(=O)NCCCN3CCN(Cc4ccccc4)CC3)ccc21	-0.15	3.3
O=C(NCCCN1CCCCCC1)c1ccc(Cn2c(=S)[nH]c3ccc(Br)cc3c2=O)cc1	.	-0.18
CCC(Cc1ccccc1)NC(=O)C1CC1 (centres undefined)	-0.7	-0.14
COc1cc(NC(C)=O)cc(OC)c1	.	-0.22
Cc1ccc(-n2c(C)cc(/C=N/O)c2C)cc1	0.75	0.56
CCCc1[nH]nc2c1C1(CCN(C(C)=O)CC1)C(C#N)=C(N)O2	0	.
COCc1cnc(C)nc1N	0.5	0.28
Oc1ccc2ccccc2c1C(N=Cc1ccc(C(F)(F)F)cc1)c1ccc(C(F)(F)F)cc1 (centres undefined)	.	0.5
O=C(NNC(=O)c1ccc(-c2ccccc2)cc1)OCc1ccc2c(c1)OCO2	.	-0.075
COc1cc(SC)ccc1C(=O)N1CCc2ccccc2C1	0.9	0.23
Nc1noc2c1C(c1ccc(F)c(Oc3ccccc3)c1)C1=C2CCCC1=O (centres undefined)	0.45	0.38
COc1cccc(CC(C)C(N)=O)c1 (centres undefined)	0.95	0.94
CN(C)S(=O)(=O)c1ccc(S(=O)(=O)N2CC=C(c3ccc(F)cc3)CC2)cc1	-1	.
CCOC(=O)c1sc(SCC(=O)c2ccc(Cl)cc2)nc1C	1.8	-0.39
O=C(CN1CCN(CC(=O)c2ccccc2)CC1)c1ccccc1	-0.8	0.18

High-throughput results deposited in PubChem BioAssay by ICCB-Longwood Screening Facility, Harvard Medical School.
